Bioassay records: PubChem BioAssay, National Center for Advancing Translational Sciences (NCATS)
LASV entry inh: Lassa virus entry inhibition; Lassa virus pseudotype entry inhibition, cell reporter; control for the full effect not named in the record; 300,000 tested, 1.2% active; Potency, µM (series often up to 37.9 µM), for the others: at the top dose activity change, negative = inhibition, most hits filed as inhibitors; active means well fitted inhibition curve with a large enough effect; inconclusive means small, poorly fitted or top-dose-only effect, or effect the other way; inactive means flat fitted curve, though single readings scatter; tested in HEK293 cells; further: on the % scale 0 is the no-effect control and ±100 the full control effect; nearly all actives have a fitted effect of over 50% in size; luciferase read-out
StopGo reporter: lowers the luciferase signal of an FMDV 2A StopGo reporter; human cells with a luciferase reporter of 2A StopGo recoding; control for the full effect not named in the record; Potency, µM (highest dose often 57.9 µM), for inactives: at the highest dose signal change, negative = less light; 410,000 tested, 1.2% active; active = well fitted falling curve with a large enough effect; inconclusive = small, poorly fitted or top-dose-only effect; inactive = no such curve, though single readings can be large or run the other way; tested in HEK293T cells; further: on the % scale 0 is the no-effect control and ±100 the full control effect; nearly all actives have a fitted effect of over 45% in size; luciferase light after 4 h
RE007 growth inh: less growth of the S. pombe RE007 Vpr strain; Potency, µM (highest dose often 92.2 µM), for inactives: at the top dose activity change, negative = less growth; 360,000 tested, 0.21% active; S. pombe RE007 Vpr strain, BacTiter-Glo ATP luminescence, 24 h; control for the full effect not named in the record; active = well fitted falling curve with a large enough effect; inconclusive = small, poorly fitted or top-dose-only effect; inactive = no such curve, though single readings can be large or run the other way;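 further: on the % scale 0 is the no-effect control and ±100 the full control effect; nearly all actives have a fitted effect of over 50% in size; the assay follows cell death caused by Vpr and the record does not say whether a fall means rescue or toxicity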
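Fission yeast RE007 carrying one integrated HIV-1 vpr copy, seeded at OD 0.01 in PMG+AL medium with 23 nL pinned compound. Grown 24 h at 30 degrees; viability read by BacTiter-Glo luminescence after 5 min.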
Cruzain noTriton: blocks cruzain activity in detergent-free assay | 200,000 tested, 2.3% active | Potency, µM, inactives show max response, negative = inhibition, hits mostly inhibitors | purified cruzain, Z-FR-AMC fluorescence, no detergent | P25779 | AID 1476; active means well fitted curve in the direction sought with a large enough effect; inconclusive means small, poorly fitted or top-dose-only effect, or another doubt; inactive means no such curve, though single readings can be large; an effect the other way counts as inactive or inconclusive;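 further: plate controls were enzyme without inhibitor for no effect and buffer without enzyme for full effect; nearly all actives have a fitted effect of over 40% in size; top concentration of the series not given in the record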
Target sequence (P25779 123-467 limits assumed): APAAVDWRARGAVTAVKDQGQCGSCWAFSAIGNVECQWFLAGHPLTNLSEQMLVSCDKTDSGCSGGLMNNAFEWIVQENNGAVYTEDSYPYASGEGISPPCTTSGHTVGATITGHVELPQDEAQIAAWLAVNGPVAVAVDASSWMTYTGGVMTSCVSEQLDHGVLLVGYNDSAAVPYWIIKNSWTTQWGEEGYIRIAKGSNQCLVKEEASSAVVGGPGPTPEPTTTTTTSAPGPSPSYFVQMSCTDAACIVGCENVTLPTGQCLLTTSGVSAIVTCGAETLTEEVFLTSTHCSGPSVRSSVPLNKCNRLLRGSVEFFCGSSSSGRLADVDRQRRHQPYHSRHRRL
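Detergent-free condition (0.00005% Triton X-100) in acetate buffer pH 5.5 with DTT. 1.5 nM enzyme and compound were pre-mixed 15 min, then 2 uM Z-FR-AMC substrate added; reaction progress from fluorescence change between first and third reads (60 s).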
Marburg entry inh: blocks Marburg virus binding to or entry into cells. Marburg virus pseudotyped entry inhibition, cell reporter; control for the full effect not named in the record; about a third of the inactives were read at about 46 µM. 300,000 tested, 1.8% active. Potency, µM (series often up to 37.8 µM), without a hit: top-dose activity change, negative = inhibition, most hits filed as inhibitors; active = well fitted inhibition curve with a large enough effect; inconclusive = small, poorly fitted or top-dose-only effect, or effect the other way; inactive = flat fitted curve, though single readings scatter; tested in HEK293 cells; about a fifth of its hits are not listed in these tables; further: on the % scale 0 is the no-effect control and ±100 the full control effect; luciferase read-out
SARS PLP yeast: blocks SARS-CoV papain-like protease in a yeast assay; S. cerevisiae expressing SARS-CoV PLpro, growth rescue; control for the full effect not named in the record; Potency, µM (doses to about 32.9 µM), without a hit: top-dose activity, positive = growth rescue; 330,000 tested, 0.19% active; AID 485353; further: 0% is about no effect; nearly all actives have a fitted effect of over 55% in size; growth read by luminescence after 48 h
NS1 inh: influenza NS1 inhibition | S. cerevisiae slowed by influenza A NS1, growth recovery by OD600 | Potency, µM (top dose mostly 46.1 µM), for inactives: at the highest dose activity, positive = more growth | 270,000 tested, 0.4% active | AID 2326; further: actives are rising curves; nearly all actives have a fitted effect of over 50% in size
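Compounds were scored for reversing the slow growth caused by influenza A NS1 in S. cerevisiae, measured by optical density at 600 nm. Assay medium contained 2% galactose at pH 6.0; NS1-free yeast of the same strain were the positive control.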
Cruzain inh Det: inhibitors of Trypanosoma cruzi cruzain with detergent | P25779 | purified cruzain, Z-FR-AMC fluorescence, 0.01% Triton | Potency, µM, for inactives: max response, negative = inhibition, actives largely listed as inhibitors | 200,000 tested, 0.43% active | AID 1478; active means well fitted curve in the direction sought with a large enough effect; inconclusive means small, poorly fitted or top-dose-only effect, or another doubt; inactive means no such curve, though single readings can be large; an effect the other way counts as inactive or inconclusive;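 further: plate controls were neutral wells for no effect and buffer without enzyme for full effect; nearly all actives have a fitted effect of over 40% in size; top concentration of the series not given in the record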
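Read-out: AMC fluorescence (360 nm excitation, 450 nm emission), four reads over 2 min, first-to-third difference used. Conditions: cruzain 1.5 nM, Z-FR-AMC 2 uM, pH 5.5 acetate, 5 mM DTT, 0.01% Triton X-100.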
Numbers without * were called inactive; ? = inconclusive; . = not tested or not shown; & = joins results of further samples; [ ] = remark or other dose. Unless noted, the call rests on the fitted dose curve; in most records, active means well fitted rising curve with a large enough effect; inconclusive means small, poorly fitted or top-dose-only effect; inactive means no such curve, though single readings can be large or run the other way. Potency means the concentration at half of the fitted maximal effect.

SMILES | LASV entry inh | StopGo reporter | RE007 growth inh | Cruzain noTriton | Marburg entry inh | SARS PLP yeast | NS1 inh | Cruzain inh Det
O=P1(Oc2ccccc2)C[C@@H](O)[C@@H](O)[C@H](COCc2ccccc2)O1 (some centres undefined) | . | -3% | 6% | . | . | 13% | -8% | .
COc1ccc(CN2CCCCC2C(=O)Nc2ccc(OC)c(OC)c2)cc1OC (centres undefined) | 12% | . | 12% | 0% | -12% | 0% | -11% | -1.9%
O=C(CC1Sc2ccccc2NC1=O)Nc1cccnc1 (centres undefined) | ? | 6% | 5% | -5% | 0% | 5% | -4% | -5.3%
O=C(NCCCNC(=O)c1c(F)cccc1F)c1c(F)cccc1F | 0%[46.1 µM] | -4% | -13% | . | 7%[46.1 µM] | -3% | -1% | .
COc1cc(/C=N/NC(=O)C2=NNC(=O)C2C)ccc1O (centres undefined) | . | 5% | 1% | . | . | 2% | ? | .
COc1cccc(NC(=O)Cc2nc(-c3ccccc3)sc2-c2ccc(C)cc2)c1 | 0%[46.1 µM] | 3% | 3% | ? | ? | -29% | 7% | -4.6%
O=C(Nc1ccccc1C(=O)NC(Cc1ccccc1)C(=O)NC1CCCCC1)c1ccccc1 (centres undefined) | -25% | -22% | -7% | 10% | -1% | -6% | 7% | -0.5%
Cc1ccc(OCc2cc(C(=O)NCCn3cccn3)no2)cc1C | . | 19% | -5% | . | . | 2% | -28% | .
COC(=O)/C(=C/c1ccco1)NC(=O)c1ccccc1 | -14% | -10% | 6% | 7% | ? | 19% | 8% | -11%
O=C(Nc1cccc(F)c1)c1cc(S(=O)(=O)N2CCC(C(=O)O)CC2)ccc1F | -19% | 23% | 11% | -3% | 4% | -5% | 20% | 2.1%
COc1ccc(CNC(=O)C2CC(c3ccccc3[N+](=O)[O-])=NO2)cc1 (centres undefined) | . | 32%[activator] | 0% | -4% | . | ? | 10% | -1.9%
COc1ccc(-c2nc(CS(=O)CC(=O)NCC3CCCO3)c(C)o2)cc1 (centres undefined) | . | 0% | 0% | -8% | . | 3% | ? | 1.0%
CCCNC(=O)C1CCC(Cn2c(=O)c3sccc3n(CC(=O)N3CCC(C)CC3)c2=O)CC1 (centres undefined) | 3%[46.1 µM] | 1% | . | -7% | . | . | . | 0.3%
COc1ccc(NC(=O)C2CCCN(S(=O)(=O)c3ccc4[nH]c(=O)ccc4c3)C2)cc1OC (centres undefined) | 7%[46.1 µM] | -14%&-11% | -2% | -4% | . | 4% | -7% | -1.0%
O=C(CSc1ccccc1)NN1C(=O)c2ccccc2C1=O | ? | -3% | 31% | . | . | -1% | 10% | .
CCOC(=O)c1cnc(Nc2nc3ccccc3o2)nc1C | 1.3µM* | ? | -9% | ? | 4.1µM* | 0% | 8% | 0.1%
CCOC(=O)CSc1nnc(NC(=O)CN2CCN(C=O)CC2)s1 | 14%[46.1 µM] | -4% | 5% | . | 1%[46.1 µM] | -2% | 11% | .
CCOC(=O)C(=O)Nc1nc(-c2ccccc2)c(CC)s1 | . | -10% | . | 5% | . | -8% | -52% | -4.6%
Cc1ccc(S(=O)(=O)N(CC(=O)Nc2cccnc2)c2cc(Cl)ccc2C)cc1 | -29%[46.1 µM] | 22% | . | ? | . | . | . | -6.6%
Cc1ccc(OCCCCn2c(CO)nc3ccccc32)cc1 | -1%[46.1 µM] | 0% | 10% | . | ? | -5% | . | .
Cc1ccc(C(=O)NCC2CCCN2S(=O)(=O)c2cccs2)cc1C (centres undefined) | 1% | 27% | 4% | . | ? | 1% | . | .
Cc1ccc(Cn2c(CN3CCOCC3)nc3c2c(=O)[nH]c(=O)n3C)cc1 | -6% | -20% | 4% | -6% | 10% | -15% | 2% | 2.2%
Cc1ccccc1-n1nc(-c2cccnc2)cc1C(=O)N/N=C/c1ccncc1 | 0%[46.1 µM] | -16% | 11% | . | 7%[46.1 µM] | -6% | . | .
Cc1cccc(C)c1NC(=O)CNC(=O)C1CC(=O)N(Cc2ccccc2)C1 (centres undefined) | 1% | -15% | 14% | . | 16%[46.1 µM] | . | . | .
CCOC(=O)c1nnc(-c2ccccc2)nc1Oc1ccccc1Cl | -26% | ? | -6% | 5% | -1%[46.1 µM] | -4% | 0% | 2.2%

(next part)
SMILES | LASV entry inh | StopGo reporter | RE007 growth inh | Cruzain noTriton | Marburg entry inh | SARS PLP yeast | NS1 inh | Cruzain inh Det
Cc1ccc2sc(NNC(=O)C3=COCCO3)nc2c1C | -19%[46.1 µM] | 4% | 10% | . | -12%[46.1 µM] | -2% | . | .
COc1cccc(OCCCCN2CCCCC2)c1 | 0% | 14% | 2% | 1% | -12% | 4% | ? | 2.5%
CCn1c(SCCC#N)nnc1-c1ccncc1 | 3% | . | 4% | 5% | -7% | 3% | -2% | 2.4%
CCOC(=O)N1CCN(Cc2nc3cc(NC(C)=O)ccc3n2C)CC1 | 6% | -10% | 1% | . | ? | 1% | 0% | .
COc1ccc2c(C)c(CC(=O)NCc3ccc(C)cc3)c(=O)oc2c1OC | 19%[46.1 µM] | -9% | . | -4% | -11%[46.1 µM] | . | . | 6.5%
CCCc1cc(=O)oc2cc(C)cc(OCC(=O)N3CCC(C(N)=O)CC3)c12 | . | -23% | 8% | . | . | 8% | 2% | .
CCOc1ccccc1NC(=O)Nc1ccsc1C(=O)OC | 19%[46.1 µM] | 6% | -5% | . | 15%[46.1 µM] | -16% | -36% | .
O=C(Nc1nncs1)c1cc(-c2ccncc2)nc2ccc(Cl)cc12 | -12% | -11% | 1% | . | 22% | -3% | 11% | .
CN(CC(=O)NCc1ccc(F)cc1)S(=O)(=O)c1ccc2c(c1)c(=O)n(C)c(=O)n2C | . | -18% | -4% | . | . | 4% | 3% | .
CN(CCC1CCOCC1)C(=O)CC1C(=O)NCCN1Cc1c(F)cccc1Cl (centres undefined) | -10% | -2% | -15% | . | -12% | 5% | -7% | .
CC(C)Nc1nc(NC(C)C)nc(Oc2ccc(=O)n(C)n2)n1 | 11% | 27% | -7% | . | -25%[46.1 µM] | 1% | 3% | .
COc1ccc(NC(=O)c2cn(-c3ccccc3)nc2-c2ccc(C)cc2)cc1 | -26%[46.1 µM] | -3% | . | -19% | . | . | . | -5.2%
C=CCNc1nc(Cl)nc(Nc2ccc([N+](=O)[O-])cc2)n1 | -10% | -8% | 2% | . | ? | 1% | . | .
Cc1ccccc1OCC(O)CNC1CCC(NCC(O)COc2ccccc2C)CC1 (centres undefined) | ? | ? | 58% | . | 1.1µM* | 1% | 1% | .
COc1ccccc1N(CCC#N)C(=O)CSc1nc(-c2ccccc2)cn1N | -9% | -1% | 8% | 3% | ? | 4% | 3% | 2.5%
CCCOc1cc(CC(=O)NCc2ccco2)ccc1OC | 10% | 15% | 24% | -8% | 4% | -2% | 2% | -2.4%
COc1cc2ccccc2cc1C(=O)NC(=S)Nc1ccc(C(=O)O)cc1 | -10%[46.1 µM] | 0% | 4% | . | -1%[46.1 µM] | -4% | -5% | .
CCOC(=O)c1c(NC(=O)c2c(Br)cnn2C)c(C#N)nn1-c1ccccc1 | -67% | . | 12% | -4% | ? | -3% | 6% | -0.6%
Cn1c(=O)[nH]c(N)c(Br)c1=O | 0%[46.1 µM] | -3% | 1% | . | 0%[46.1 µM] | . | . | .
COC(=O)c1ccc(COC(=O)c2[nH]c(C)c(C(C)=O)c2C)o1 | -27% | 13µM* | -2% | -4% | ? | 5% | -12% | 0.2%
O=C(O)COc1ccccc1O | -18% | 11% | 9% | -3% | ? | 2% | 6% | 0.5%
CCOc1ccc2oc(C(=O)OCC(=O)NC(=O)NC3CCCC3)c(C)c2c1 | 3% | 0% | 15% | 3% | 6% | 7% | -21% | -11%
CC(C)NC(=S)N(CCc1ccncc1)C(C)C | 11%[46.1 µM] | -5% | -6% | . | -6%[46.1 µM] | -11% | . | .
CCCCC1C2=C(CC(C)(C)CC2=O)OC2=C1C(=O)CC(C)(C)C2 | ? | -7% | -28% | 12% | ? | -18% | -3% | -6.9%
CCCCC(C(=O)NC(C)(C)C)N(Cc1ccco1)C(=O)c1snc(C(N)=O)c1N (centres undefined) | ? | -6% | 6% | -2% | ? | -6% | -5% | -0.3%

(listing goes on)
SMILES | LASV entry inh | StopGo reporter | RE007 growth inh | Cruzain noTriton | Marburg entry inh | SARS PLP yeast | NS1 inh | Cruzain inh Det
CC(C)c1ccc(C(C(C(=O)c2ccccc2)N2CCOCC2)N2CCOCC2)cc1 (centres undefined) | -2%[46.1 µM] | 16% | 2% | . | 8%[46.1 µM] | . | . | .
Cn1c(=O)c2sccc2n2c(CCCC(=O)NCc3ccc4c(c3)OCO4)nnc12 | -1% | 15% | -3% | 0% | 24% | 0% | -12% | 3.6%
CCCCOc1ccc(C(=O)Nc2cccc(-c3nc4ccccc4o3)c2C)cc1 | 12%[46.1 µM] | -21% | . | -5% | 1%[46.1 µM] | . | . | 0.9%
Cc1ccc(NC(=O)CCC(=O)N2CCSc3ccccc32)cc1Cl | 33%[46.1 µM] | -8% | . | 4% | . | . | . | -6.2%
COc1ccc(Br)cc1CNC(=O)C1CCCN(c2nc3ccccc3o2)C1 (centres undefined) | 2% | -4% | 1% | ? | ? | 1% | 2% | -3.7%
Cc1cccc(-n2c(SCC(=O)O)nc3sc4c(c3c2=O)CCCC4)c1 | . | 2% | -19% | . | . | -2% | 3% | .
O=C(COC(=O)/C=C/c1nc2ccccc2s1)Nc1cccc2ccccc12 | -7% | -16% | -8% | 6.3µM* | -4% | -18% | ? | -5.3%
CCS(=O)(=O)N(CC(=O)Nc1cccc2ccccc12)c1ccc(OC)cc1 | -5% | 13% | 12% | . | 25% | -4% | . | .
CCCCNC1(C#N)CCN(Cc2ccccc2)CC1 | 18% | -14% | 2% | . | 1% | . | . | .
CCc1nnc(NC(=O)Cc2ccc(OC)cc2)s1 | -2% | -2% | 1% | 1% | 2% | -5% | -5% | 5.1%
COC(=O)c1cc(NC(=O)Cn2ncc3c2-c2ccccc2OC3)cc(C(=O)OC)c1 | . | ? | . | ? | 1%[46.1 µM] | . | . | -7.6%
CC(=O)Nc1cc2c(cc1Br)-c1ccccc1C2 | -1% | 51%[activator] | 0% | . | ? | . | . | .
Cc1ccccc1OC(=O)c1snnc1C | 1%[46.1 µM] | -14% | . | -9% | 11%[46.1 µM] | . | . | -2.1%
CC1CC(=O)NN1C(=O)c1ccccc1 (centres undefined) | 25%[46.1 µM] | 4% | -16% | . | 2%[46.1 µM] | 0% | 3% | .
